Assay outcomes from PubChem.
Polio RdRp inh – inhibitors of poliovirus RNA polymerase binding and polymerization; poliovirus polymerase elongation, fluorescence polarization; hits give low values; % elongation, % (compound at 16.7 µg/mL); 150,000 tested, 0.66% active; in the data active means % elongation below about 90%; further: some results filed as inactive read as strong as hits
Target sequence (P03300 1749-2209 limits assumed): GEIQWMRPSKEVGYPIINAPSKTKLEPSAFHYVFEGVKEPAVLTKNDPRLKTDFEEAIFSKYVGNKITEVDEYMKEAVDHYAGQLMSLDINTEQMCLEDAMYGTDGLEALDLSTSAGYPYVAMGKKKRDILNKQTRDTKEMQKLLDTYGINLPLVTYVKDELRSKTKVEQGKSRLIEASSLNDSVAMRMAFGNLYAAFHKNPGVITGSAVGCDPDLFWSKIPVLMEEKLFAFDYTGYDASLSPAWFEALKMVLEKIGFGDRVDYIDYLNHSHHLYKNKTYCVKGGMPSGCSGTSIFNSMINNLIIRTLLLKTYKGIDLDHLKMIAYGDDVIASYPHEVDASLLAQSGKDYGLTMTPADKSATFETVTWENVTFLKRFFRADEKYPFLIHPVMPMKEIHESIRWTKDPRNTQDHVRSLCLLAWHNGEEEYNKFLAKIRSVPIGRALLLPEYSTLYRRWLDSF
Mtb MenB inh – inhibitors of Mycobacterium tuberculosis MenB enzyme | P9WNP5 | MenB enzyme assay, absorbance read-out; some hits fall short of the stated cut | inhibition, %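 (about 12 µg/mL by stock and volumes)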 | 100,000 tested, 0.43% active;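 active means mean of two replicates above 30%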;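 further: 0% = no compound and 100% = wells with inactive enzyme; the first replicate is given; strong numbers were not always called active; inactives centre near -10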
Mtb MbtI inh – inhibitors of Mycobacterium tuberculosis siderophore enzyme MbtI | purified MbtI enzyme, fluorescence intensity read-out | inhibition, %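 (about 17 µg/mL by stock and volumes)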 | 100,000 tested, 0.89% active;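 active means above 50% in both replicates, above 80% if mildly self-fluorescent; inactive means the rest, strongly fluorescent compounds included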;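 further: 0% = mean of negative and 100% = mean of positive controls; one replicate is shown; some compounds called inactive have numbers as strong as hits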
Target sequence (P9WFX0 whole entry, looked up): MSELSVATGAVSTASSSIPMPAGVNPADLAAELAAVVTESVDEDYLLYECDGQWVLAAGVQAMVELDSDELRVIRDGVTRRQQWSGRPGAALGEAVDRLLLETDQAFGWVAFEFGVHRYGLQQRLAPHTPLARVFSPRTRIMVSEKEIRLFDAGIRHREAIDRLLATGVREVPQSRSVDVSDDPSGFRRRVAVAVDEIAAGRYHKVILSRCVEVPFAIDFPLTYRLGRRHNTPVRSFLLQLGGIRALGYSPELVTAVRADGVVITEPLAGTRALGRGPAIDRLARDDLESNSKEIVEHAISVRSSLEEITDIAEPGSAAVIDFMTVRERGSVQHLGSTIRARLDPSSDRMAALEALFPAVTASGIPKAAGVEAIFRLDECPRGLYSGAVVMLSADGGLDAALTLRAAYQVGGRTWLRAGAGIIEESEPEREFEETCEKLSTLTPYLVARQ
Polio RdRp inh intensity – second read-out of Polio RdRp inh, no call of its own (marks repeat the call); % elongation; measured here: total intensity read-out; formula for this scale not given here;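 total fluorescence in place of polarization; lower means less elongation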
* hit, by the source's call; x = no result given.

SMILES	Polio RdRp inh	Polio RdRp inh intensity	Mtb MenB inh	Mtb MbtI inh
N#CC1=C(N)C(C#N)(C#N)C2(C(=O)Nc3ccccc32)C2CCCC=C12 (stereo not drawn)	100	99	-40	4
CN1CSC2=C(C#N)C(c3ccccc3)CC(=O)N2C1 (stereo not drawn)	94	90	-17	86*
CCOC(=O)c1sc(/N=C/N(C)C)nc1C	101	98	-6	23
O=P(C1=C(N2CCOCC2)/C(=C\c2ccccc2)CC1)(N1CCOCC1)N1CCOCC1	101	107	-20	1
Cc1ccc(CNC(=O)c2cccc(Nc3nc4ccccc4n4cnnc34)c2)cc1	102	99	-9	-182
CSc1ncccc1C(=O)OCc1ccccc1F	106	112	-14	-3
Cc1cccc(NC(=O)Cn2cnc3c(oc4ccccc43)c2=O)c1C	101	103	0	-16
COc1ccc(C2CC(=O)NC(NC(=O)CN3C(=O)c4ccccc4C3=O)=N2)cc1 (stereo not drawn)	100	104	5	-4
O=c1[nH]cnc2c1oc1ccccc12	92	101	-8	-3
Cc1cc(I)c[nH]c1=O	101	103	14	4
CCn1c(-c2ccc3c(c2)OCCO3)cnc1SCC(=O)c1ccc(CNC(C)=O)s1	101	104	-13	10
Cc1cc(NC(=O)NC2CC(=O)N(C3CCCC3)C2)ccc1Br (stereo not drawn)	102	105	-1	-10
CCCCNC(=O)c1cnc2n(c1=O)CCS2	102	104	-3	7
CCC(C)c1ccc(Oc2ccc(S(=O)(=O)N3CCCCC3)cn2)cc1 (stereo not drawn)	103	96	13	5
O=C(c1cn[nH]c1)c1cc(F)ccc1O	102	108	x	-4
O=C(Cn1cnc2ccccc21)OCc1ccc(Br)cc1	99	100	-9	-1
O=c1[nH]c(CN2CCN(Cc3ccccc3)CC2)nc2sc3c(c12)CCC3	107	104	10	4
O=C(Cn1cnc(S(=O)(=O)N2CCCCC2)c1)Nc1ccccc1	101	101	-10	-6
CC1=CC(=O)C(C(=O)/C=C/c2cn(-c3ccccc3)nc2-c2cc3ccccc3o2)C(=O)O1 (stereo not drawn)	46	242	-4	-5
Cc1sc2nc(CC(=O)NN)[nH]c(=O)c2c1C	97	90	-21	34

Rewritten with values under each structure: part of the list above
Screens in order: Polio RdRp inh	Polio RdRp inh intensity	Mtb MenB inh	Mtb MbtI inh
CCC(C)c1ccc(Oc2ccc(S(=O)(=O)N3CCCCC3)cn2)cc1 (stereo not drawn)
  103	96	13	5
O=C(c1cn[nH]c1)c1cc(F)ccc1O
  102	108	x	-4
CC1=CC(=O)C(C(=O)/C=C/c2cn(-c3ccccc3)nc2-c2cc3ccccc3o2)C(=O)O1 (stereo not drawn)
  46	242	-4	-5
O=c1[nH]c(CN2CCN(Cc3ccccc3)CC2)nc2sc3c(c12)CCC3
  107	104	10	4

Next compounds follow:
SMILES	Polio RdRp inh	Polio RdRp inh intensity	Mtb MenB inh	Mtb MbtI inh
COc1ccc(-c2cc(-c3ccccc3)c(-c3ccccc3)nn2)cc1CN1CCOCC1	105	108	-26	-8
Cc1ccsc1C(=O)OCC(N)=O	99	94	x	-8
COc1ccccc1NC(=O)CN(Cc1ccco1)C(=O)c1ccc(OC)c(OC)c1	105	106	1	4
COc1ccc(-c2ccc(CNC3CC3)o2)cc1Cl	103	103	8	-6
CCCCNC(=O)c1cnn(-c2cccc(F)c2)c1-n1cccc1	101	100	-30	2
CN(Cc1ccccc1)C(=O)c1cc(-c2ccc(Cl)cc2)on1	102	104	-22	-2
CCN(CC)C1=N/C(=C/c2ccccc2)C(=O)N1c1ccc(Cl)cc1	101	108	-22	x
O=C(NCc1ccncc1)c1cc2ccccc2nc1Cl	102	107	x	-13
COc1ccc(/C=C2\SC(=S)N(CCCCCC(=O)N3CCN(C)CC3)C2=O)cc1	101	101	-15	11
c1ccc2c(c1)Nc1ccccc1S2	102	104	-20	10
NS(=O)(=O)c1ccc(CNC(=O)c2ccc(=O)[nH]c2)cc1	100	101	-11	-4
O=C1N/C(=C\c2ccccc2Cl)C(=O)N1Cc1ccc(Cl)cc1	101	96	-20	-7
O=C1c2ccccc2C(=O)N1CC1OCc2ccccc2CO1	x	x	-2	-10
Cc1cc(C(=O)CSc2cc(C(=O)c3nccn3C)c3ccccc3n2)c(C)n1C1CC1	102	101	16	-4
Cc1ccc(C)n1-c1nnc(N2CCCC(C(=O)O)C2)s1 (stereo not drawn)	103	96	0	4
COc1ccc(C2OC(COc3ccc4c(C)cc(=O)oc4c3)=NN2C(C)=O)cc1 (stereo not drawn)	99	101	-4	133
O=P1(N2CCOCC2)C=C(c2ccccc2)c2cc(Cl)ccc2O1 (stereo not drawn)	106	98	-22	-1
Cc1ccc(S(=O)(=O)N(C)CCO)cc1-c1nnc2c3ccccc3c(C)nn12	102	101	-15	6
COc1ccc(C(=O)N2CC(C)N(C(=O)c3ccc(OC)c(OC)c3)CC2C)cc1OC (stereo not drawn)	102	98	-21	-8
O=C(/C=C/c1ccc(F)cc1)N(CCO)c1nc2ccccc2[nH]1	102	104	-30	8
CCCn1c2ccccc2n2c(C(=O)c3cccs3)c(C)nc12	107	111	-43	x
CC(C)Cc1nc2ccccc2c(=O)n1-c1ccccc1	99	104	7	-3
CC(=O)Nc1ccc(NC(=O)CSc2cccc[n+]2[O-])cc1	102	101	x	5
CC1=C(C)SC(=C(C#N)c2nc(-c3ccccc3)cs2)S1	93	124	-14	-6
CC1(C)CC(=O)C2=C(C1)N(CCN1CCOCC1)C1=C(C(=O)CC(C)(C)C1)C2c1cccc(Cl)c1	101	105	-24	-22
O=C(CSc1nnc(Cc2ccccc2)o1)N(c1ccccc1)c1ccccc1	98	100	33	75*
CCCn1nc(C(=O)Nc2ccc3nc(N4CCOCC4)sc3c2)ccc1=O	102	93	-45	14
O=C(CCOc1ccccc1)NCc1ccco1	102	101	10	1
CCOC(=O)C1SC2(C(F)F)CC1(O)c1c(c(OC)c3occc3c1OC)O2 (stereo not drawn)	100	107	-14	3
N#Cc1cccc(C(=O)O)c1	102	106	x	-12
Cc1ccc(C(=O)[C@@H]2[C@@H](C(C)(C)C)C(C#N)(C#N)[C@@]3(C)C=Cc4ccccc4N23)cc1	107	103	-34	x
COc1ccc(N=C(N(C)C)P(=O)(N(C)C)N(C)C)cc1	103	105	-6	-2
COC(=O)Cc1c(C(=O)OC)sc(N)c1C#N	101	105	2	4
COc1cc(C(=O)N(Cc2ccccc2)Cc2cc3ccc(C)cc3[nH]c2=O)cc(OC)c1OC	105	111	-7	x
CC(=O)Nc1cccc(C(=O)OCCN2C(=O)c3ccccc3C2=O)c1	103	107	3	1
Cc1ccc(C)c(N2CCN(C(=O)CN3CC(c4ccccc4)CC3=O)CC2)c1 (stereo not drawn)	99	102	-14	-3
O=C1/C(=N\n2cnc3c(cnn3-c3ccccc3)c2=O)c2ccccc2N1CO	95	94	-22	0
O=C(CSCc1ccc(Cl)cc1)NCc1ccc2c(c1)OCO2	102	106	x	-10
CCOC(=O)C1CCCN(C(=O)c2ccc3c(c2)NC(=O)c2ccccc2S3)C1 (stereo not drawn)	106	105	-16	13
Cc1ccc(C2NC(=S)NC3=C2N2CCC3CC2)cc1 (stereo not drawn)	104	102	-6	4

Looked up by structure from the list above (2):
SMILES	Polio RdRp inh	Polio RdRp inh intensity	Mtb MenB inh	Mtb MbtI inh
COc1cc(C(=O)N(Cc2ccccc2)Cc2cc3ccc(C)cc3[nH]c2=O)cc(OC)c1OC	105	111	-7	x
CCOC(=O)C1CCCN(C(=O)c2ccc3c(c2)NC(=O)c2ccccc2S3)C1 (stereo not drawn)	106	105	-16	13

Next section:
SMILES	Polio RdRp inh	Polio RdRp inh intensity	Mtb MenB inh	Mtb MbtI inh
N#C/C(=C\c1ccc[nH]1)S(=O)(=O)c1ccccc1	102	104	-68	-10
Cc1ccc2c(c1)CCCN2C(=S)Nc1cccc(C(F)(F)F)c1	107	102	-17	-4
CCc1ccc(OCC(=O)Nc2sc3c(c2C(=O)OC)CCCC3)cc1	99	93	-6	22
COC(=O)c1ccc(Cn2c(C)cc(C)[n+]2C)o1	99	102	-51	-5
O=C(CSc1nc2cc(S(=O)(=O)N3CCCCC3)ccc2o1)Nc1ccccc1F	101	94	-11	13
O=C(CCNS(=O)(=O)c1cccs1)NC1CCCc2ccccc21 (stereo not drawn)	105	107	-6	10
COc1ccc(Cc2nnc(SCc3cccc(C(=O)O)c3)o2)cc1OC	104	97	-58	-7
COc1ccc(Cc2nnc(SCC(N)=O)o2)cc1	101	102	-35	-14
O=C(NCCCN1CCCC1)c1cc2c(s1)-c1ccccc1OC2	100	104	9	102
O=C(c1cn(Cc2nc(-c3cccs3)no2)c2ccccc12)C(F)(F)F	101	101	-19	7

Whole records, quoted from the list.
CCc1ccc(OCC(=O)Nc2sc3c(c2C(=O)OC)CCCC3)cc1 is listed with Polio RdRp inh = 99; Polio RdRp inh intensity = 93; Mtb MenB inh = -6; Mtb MbtI inh = 22
O=C(NCCCN1CCCC1)c1cc2c(s1)-c1ccccc1OC2 is listed with Polio RdRp inh = 100; Polio RdRp inh intensity = 104; Mtb MenB inh = 9; Mtb MbtI inh = 102
COc1ccc(Cc2nnc(SCC(N)=O)o2)cc1 is listed with Polio RdRp inh = 101; Polio RdRp inh intensity = 102; Mtb MenB inh = -35; Mtb MbtI inh = -14

The list goes on.
SMILES	Polio RdRp inh	Polio RdRp inh intensity	Mtb MenB inh	Mtb MbtI inh
O=C(Nc1nccs1)c1cccc(Cl)c1	103	104	-6	6
O=C(COc1ccc(-c2nnco2)cc1)NC(=O)NCc1ccco1	100	99	-18	-2
NNc1ccc2c(Cl)cc(Cl)c(O)c2n1	98	98	-34	31
COC(=O)c1ccc(CSCC(=O)Nc2cc(OC)cc(OC)c2)o1	100	103	10	9
Cn1c(=NC(=O)Cc2csc(-c3cccnc3)n2)sc2ccccc21	109	115	-22	-4
Cc1n[nH]c(=S)n(/N=C/C2=CCC3CC2C3(C)C)c1=O (stereo not drawn)	102	96	-23	-2
CCOc1ccccc1NC(=O)C(NC1CCS(=O)(=O)C1)c1ccccc1 (stereo not drawn)	102	107	-1	-8
COc1ccc2[nH]c3c(=O)n(CC(=O)NCCc4ccc(OC)c(OC)c4)c(=S)[nH]c3c2c1	99	107	-25	19
COCCCNc1ncnc2onc(-c3ccc(Cl)cc3)c12	101	100	14	17
Cc1cc(C)nc(SCC(=O)OCCN2C(=O)c3ccccc3C2=O)n1	103	97	-30	-11
Cc1ccc(NC(=O)COC(=O)COc2ccc(Cl)cc2)cc1C	101	104	x	-7
O=C(NC12CC3CC(CC(C3)C1)C2)N1CCC(CN2CCCCC2)CC1	105	105	0	-15
COc1ccc(C(CC(=O)O)Sc2ncn[nH]2)cc1 (stereo not drawn)	103	104	-18	4
Cc1ccc2c(c1)-c1nc3[nH]c(=O)[nH]c(=O)c3cc1C(O)O2 (stereo not drawn)	100	102	-6	-4
C=NC(C(=O)NC1C(=O)N2C1SC(C)(C)C2C(=O)O)c1ccccc1 (stereo not drawn)	101	102	-6	-9
CCCC1CC(=O)CC(=O)C1	100	99	-90	12
CC(=O)N1CCCn2c1nc1ccccc12	103	101	-1	-6
COC(CNC(=O)c1ccc(CS(=O)(=O)Cc2cccc(C)c2)o1)OC	99	102	-4	-7
COCCn1c(NC(=S)NC(=O)C2CC2)cc(=O)[nH]c1=O	99	105	-39	21
COC(=O)c1cc(NC(=O)c2c(Cl)nc3sccn23)cc(C(=O)OC)c1	102	107	-41	-11
O=C(NCCCn1ccnc1)c1cc2ccccc2o1	107	109	-7	x
O=C(O)COCC(=O)Nc1ccccc1SCc1noc(-c2cccs2)n1	100	95	-25	-2
COc1ccc(Oc2cc(C(F)(F)F)nc3cc(C(C)(C)C)nn23)cc1	100	103	-27	-5
O=C(C1CC1)N1CCc2cc(Br)cc(S(=O)(=O)NCCCN3CCN(Cc4ccccc4)CC3)c21	105	103	-25	-9
Cc1cc(C(=O)N2CCc3ccccc32)no1	97	100	-18	3
CCOc1cc(/C=c2/sc3nc4ccccc4n3c2=O)ccc1OC	103	104	-13	2
CC12CCC(C(=O)Nc3ccc(Cl)cn3)(CC1=O)C2(C)C (stereo not drawn)	107	104	-5	x
N#C/C(=C\C=C\c1ccco1)c1nc(-c2ccccc2)cs1	111	118	-85	23
CN1C(=O)C(C(=O)O)C2CC1Oc1ccccc12 (stereo not drawn)	100	106	34*	4
CCn1c(CCNC(=O)c2ccco2)nc2ccccc21	103	103	-4	25
N#Cc1ccc(CSc2nnc(-c3sc4ccccc4c3Cl)o2)cc1	102	88	-11	-9
COc1ccc(OCC(=O)NC(C)CCc2ccccc2)cc1 (stereo not drawn)	105	108	x	-14
COC(=O)CNC(=O)c1cn(-c2ccc(C)c(C)c2)c(=O)c2ccccc12	103	98	-14	-5
CC1=CC(=O)CC(C)(C)C1(O)/C=C/C(C)=C\C(=O)O (stereo not drawn)	95	107	-6	-13
O=C1NC(=O)N(Cc2ccccc2)C(=O)/C1=C/c1ccc2c(c1)OCO2	101	99	-20	28
Nc1nnc(CCN2C(=O)S/C(=C/c3ccccc3)C2=O)s1	101	101	-23	x
O=C1c2ccccc2C(=O)N1CCSc1n[nH]c(=O)n1Cc1ccccc1	106	106	-18	-8
Cc1ccc(CNC(=O)CN2CCN(Cc3cccc(C)c3)C2=O)cc1	102	103	0	-2
O=C(COC(=O)c1cc(=O)c2ccccc2o1)c1ccc2[nH]c(=O)[nH]c2c1	98	108	1	-10
COc1ccccc1OCCn1c(CO)nc2ccccc21	101	107	-4	-9
CCCOC(=O)CSC1=C(C#N)C(c2ccccc2C)C(C#N)C(=O)N1 (stereo not drawn)	106	100	-52	-24
Cc1cc(=O)n2ccccc2n1	100	101	11	24
CC(C)(C)OC(=O)N1CCCC[C@@H]1C(=O)O	103	109	-7	-15
O=C1C(c2ccc(F)cc2)N(C2CCCC2)C(=O)CN1C1CCCC1 (stereo not drawn)	98	102	3	-3
